# Assay outcomes (PubChem BioAssay)
# HCMV NEC inh – cytomegalovirus nuclear egress complex inhibition; HTRF UL50-UL53 interaction, normalized percent inhibition; inhibition, % (no concentration beside the values); actives 0.15% (n = 190,000);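 active = both replicates at 50% or more, plus weaker picks with an unusually low signal ratio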;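 also: stock transfer was 100 nL into about 20 µL; 0% = negative control wells and 100% = wells with untagged competitor protein; inactives centre near -12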
# Sa growth 42C – inhibitors of Staphylococcus aureus growth at 42 °C; AID 720641; relative growth, % (concentration not given with the values); actives 0.53% (n = 170,000); S. aureus RN4220 growth, OD600, 20 h; stronger effect = lower value;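 active = growth at 42 °C up to 50% and 20 or more points under that at 30 °C, or under 10% at both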;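 also: 300 nL library stock went into each well; scaled to the means of positive and negative controls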
# GIV-Gai inh – blocks GIV peptide binding to rat Galpha-i3; Galpha-i3/FITC-GIV peptide fluorescence polarization, 90 min; stronger effect = lower value; scaled: aluminum fluoride 0%, vehicle 100%; percent of control (FP), % (concentration not given with the values); actives 0.42% (n = 210,000); AID 1224905;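 active = replicate mean at 85% of control or lower, very high polarization wells dropped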;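 also: wells of about 15 µL received 100 nL stock; the first replicate is given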
# Target sequence (P08753 whole entry, looked up): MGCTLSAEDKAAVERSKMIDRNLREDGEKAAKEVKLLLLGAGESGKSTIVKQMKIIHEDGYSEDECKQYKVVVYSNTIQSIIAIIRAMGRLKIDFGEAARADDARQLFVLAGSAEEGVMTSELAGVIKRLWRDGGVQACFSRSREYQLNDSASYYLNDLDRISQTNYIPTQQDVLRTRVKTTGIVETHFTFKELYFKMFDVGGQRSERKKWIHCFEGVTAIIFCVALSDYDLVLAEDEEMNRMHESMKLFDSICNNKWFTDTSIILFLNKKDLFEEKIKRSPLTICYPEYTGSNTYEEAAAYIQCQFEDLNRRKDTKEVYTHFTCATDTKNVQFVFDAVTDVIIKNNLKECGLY
# Sa growth 42C second temp – also measured in Sa growth 42C; calls as there; relative growth, %; measured here: growth at 30 °C;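 optical density after 20 h as mean of two plates; 100% = untreated growth and lower means inhibition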
# Starred values were filed as active, the others as inactive; nt = not tested or not shown; & = joins results of further samples. Hits appear at their usual frequency, and some 0.83% of all compounds hit somewhere here.
SMILES,HCMV NEC inh,Sa growth 42C,Sa growth 42C second temp,GIV-Gai inh
CCn1cc(C(=O)NCC23CC4CC(CC(C4)C2)C3)c(=O)c2ccc(C)nc21,-7,85,98,nt
CCS(=O)(=O)c1nc2ccccc2n1Cc1ccccn1,-24,80,77,99
COc1cc(NC(=O)CNCc2ccc(Cl)cc2)ccc1-n1cnnn1,-4,91,75,105
O=C(Cn1ncc2c3ccccc3n(Cc3ccc(F)cc3)c2c1=O)NC1CCCCCC1,-8,100,89,103
O=C(O)CCC(=O)N1N=C(c2cccs2)CC1c1ccccc1O (stereo not given),-55,95,90,101
CCn1c(Cc2nnc(SCC(=O)c3ccc(F)cc3)n2CC)nnc1SCC(=O)c1ccc(F)cc1,-32,96,71,101
Cc1ccccc1-n1cnnc1SCc1nnc(-c2ccccc2Br)o1,-14,99,93,nt
CC(C)(CC(=O)OCC(=O)Nc1ccc(F)c(Cl)c1)CC1=NS(=O)(=O)c2ccccc2N1,nt,78,76,105
Cc1ccccc1NS(=O)(=O)c1cn(C)c(C)n1,8,nt,nt,108
Cc1ccc2[nH]c3c(c2c1)CCc1cn[nH]c1-3,-16,46,6,99
Cc1onc(-c2ccc(Cl)cc2)c1-c1ccnc(SCC(=O)c2ccccc2)n1,-22,103,88,105
COc1ccccc1CNC(=O)c1cc2sccc2n1Cc1ccc(Cl)cc1,-26,102,89,100
COc1ccc2nc(Cl)c3nnnn3c2c1,0,78,70,110
Cc1cccc(CCNC(=O)C2CCN(S(=O)(=O)c3ccc(-n4cnnn4)cc3)CC2)c1,-10,96,87,100
O=C(Nc1c(C(=O)N2CCN(c3ccccc3)CC2)oc2ccccc12)c1ccco1,nt,104,95,100
COc1ccccc1-c1nnc(SCC(=O)OC(C)C)n1-c1ccccc1,20,100,118,105
Cc1cccc(-n2ncc3c(Nc4c(C)cc(C)cc4C)ncnc32)c1,nt,72,62,100
CCN1CCSc2ccc(C(=O)NCc3ccccc3Br)cc21,-7,105,96,108
Cc1cc(=O)n2c(C(=O)Nc3ccc(C)c(C)c3)c(C(=O)Nc3ccccc3)sc2n1,-2,106,79,105
CCOC(=O)c1sc2ncn(CC(=O)Nc3ccc(C)cc3C)c(=O)c2c1C,-45,100,96,105
O=C(NCc1ccco1)c1csc(C2COc3ccccc3O2)n1 (stereo not given),-11,117,89,103
O=C(/C=C/c1ccc(S(=O)(=O)N2CCOCC2)cc1)Nc1nccs1,-27,107,104,nt
O=C(O)CC1c2ccccc2Oc2ccccc21,-11,90,90,94
O=C(O)CSc1c2c(nc3cc(C(=O)N4CCCC4)ccc13)CCCC2,-40,95,90,95
CCOC(=O)CCN(c1ccccc1)S(=O)(=O)c1cc(-c2cc(C)no2)ccc1C,nt,80,82,104
O=C(CN1C=NS(=O)(=O)c2ccccc21)NCCc1ccccc1,0,107,99,99
CS(=O)c1nc(-c2ccccc2)cc(C(F)(F)F)n1 (stereo not given),nt,-0.2*,0.5*,107
Cc1cc(C)nc(NS(=O)(=O)c2ccc(NC(=O)c3ccccc3[N+](=O)[O-])cc2)n1,-74,nt,nt,102
CCN(CC)Cc1cccc2cccnc12,3,81,95,nt
COc1ccccc1Cc1nc2ccccc2nc1SCC(=O)N(C)c1ccc(F)cc1,nt,79,87,99
Cc1nc2cc(-c3ccccc3)nn2c(C)c1CCC(=O)NCCc1ccccc1,-24,101,90,100
CN(Cc1ccccc1)C(=O)C(=O)Nc1ccc2nc3n(c(=O)c2c1)CCCCC3,-19,102,85,100
O=C(Nc1c2c(nn1-c1ccccc1)CSC2)c1ccc(Cl)cc1,12,121,117,103
CCN(c1cccc(C)c1)C1C(=O)c2ccccc2N1C(C)=O (stereo not given),-29,93,72,104
CCc1nn2c(=O)cc(COC(=O)c3ccc(NC(=O)c4cccs4)cc3)nc2s1,nt,93,91,103
Cc1cc(C)cc(N2C(=O)c3cc4sccc4n3CC2(C)C(=O)NC2CCCCC2)c1 (stereo not given),-17,nt,nt,103
O=C(O)c1ccc(CSCc2ccccc2)o1,-10,107,95,nt
COc1ccc(NC(=O)CSC2=Nc3ccccc3C3=NC(Cc4ccccc4)C(=O)N23)cc1Cl (stereo not given),nt,88,84,100
Cc1cc(=O)oc2cc(OCc3cccc(F)c3)ccc12,nt,102,102,103
c1ccc(Nc2nncs2)cc1,-2,86,90,nt
CCOC(=O)c1c(NC(=O)CSc2ncnc3sc(C)c(C)c23)sc2c1CCC2,-8,nt,nt,103
Cn1ccnc1C(O)c1ccc(N)cc1 (stereo not given),-27,83,70,100
CCC(C(=O)NCCCN1CCOCC1)N1C(=O)CCCc2ccccc21 (stereo not given),-11,nt,nt,109
Cc1ccc2c(c1)CCCN2C(=O)Cc1c(C)noc1C,3,107,89,nt
COc1ccc2nc(NC(=O)c3ccc(-c4noc(C)n4)cc3)sc2c1,-36,nt,nt,100
O=C(CSc1nc(-c2ccccc2)no1)NCc1ccccc1Cl,0,nt,nt,106
CCOc1ccc(-c2nonc2NC(=O)COc2ccccc2)cc1,nt,103,98,110
CCC(=O)N1c2ccc(S(=O)(=O)CCC(=O)Nc3ccc(Br)c(C)c3)cc2CC1C (stereo not given),-12,113,86,108
CCCCn1cnc2c(cnn2-c2ccc(F)cc2)c1=O,nt,120,87,91
Cc1cccc2c1-c1sc(C(=O)N3CCN(c4ccccc4)CC3)cc1CO2,-14,106,86,109

# (more compounds)
SMILES,HCMV NEC inh,Sa growth 42C,Sa growth 42C second temp,GIV-Gai inh
CC1CCN(c2nc3ncnc(SCC(=O)NCC4CCCO4)c3s2)CC1 (stereo not given),17,nt,nt,102
N#Cc1ccccc1OCc1csc(-c2cccs2)n1,-8,96,96,nt
O=C(Nc1ccc(-c2nc3cc(Cl)ccc3o2)cc1)c1cc(Br)ccc1Cl,18,108,98,104
Cc1cccc(-n2c(N)cc(=O)nc2SC(C)C(=O)Nc2ccccc2)c1 (stereo not given),-15,104,87,102
O=C(CCc1nc(-c2cc3ccccc3[nH]c2=O)no1)NCC1CCCO1 (stereo not given),-27,nt,nt,109
Brc1cccc(N2Cc3ccccc3C2)c1,-2,102,83,105
COCCNC(=O)NCCCn1c(C(F)(F)F)nc2cccnc21,10,nt,nt,95
COc1ccc(C2C3=C(CC(C)(C)CC3=O)Nc3ccccc3N2C(C)=O)cc1COc1ccc(F)cc1 (stereo not given),-18,nt,nt,99
COc1ccc(C2=NN(C(=O)CCC(=O)O)C(c3cccs3)C2)cc1 (stereo not given),-64,nt,nt,103
CC(=O)c1cccc(NC(=O)Nc2c(C)n(C)n(-c3ccccc3)c2=O)c1,28,99,95,100

# Two records picked at random from the list so far:
SMILES,HCMV NEC inh,Sa growth 42C,Sa growth 42C second temp,GIV-Gai inh
COc1ccc(C2=NN(C(=O)CCC(=O)O)C(c3cccs3)C2)cc1 (stereo not given),-64,nt,nt,103
CC1CCN(c2nc3ncnc(SCC(=O)NCC4CCCO4)c3s2)CC1 (stereo not given),17,nt,nt,102

# Additional results follow.
SMILES,HCMV NEC inh,Sa growth 42C,Sa growth 42C second temp,GIV-Gai inh
Cc1ccc(NC(=O)N2CCN(c3cnccn3)CC2)cc1,-24,97,89,96&95
CCCc1cc(=O)[nH]c(/N=C(/NC(=O)c2ccccc2)Nc2ccccc2)n1,-6,105,93,101
CCN1CCN(C2(CNC(=O)c3oc4cc(C)cc(C)c4c3C)CCCCC2)CC1,-12,nt,nt,98
N#C/C=C/c1ccc(Cl)cc1Cl,1,106,97,98
Cc1nnsc1-c1nnc(SCC(=O)N(c2ccccc2)C2CCCCC2)n1C1CC1,-19,97,97,107
CCCCN1C(=O)C2C(C(=O)Nc3ccc(C(C)C)cc3)C3C=CC2(O3)C1C(=O)NC1CCCCC1 (stereo not given),nt,128,84,101
CC(C)CCN1C(=O)c2ccc(-c3nc4ccccc4o3)cc2C1=O,-24,107,94,103
O=C(NOC(=O)c1ccccc1)c1ccccc1,-22,92,77,101
COCCNc1ncccc1-c1nc(-c2ccc(Cl)cc2)no1,-16,nt,nt,93
CC1(C)CC(=O)c2cc(C(=O)NC(C)(C)C)c(=O)n(-c3ccccc3)c2C1,-2,92,68,104
CC1CCc2c(sc(NC(=O)c3ccc(Cl)cc3Cl)c2C#N)C1 (stereo not given),-27,97,90,102
Cc1ccc(OCC(O)Cn2c(C3CC(=O)N(C(C)(C)C)C3)nc3ccccc32)c(C)c1 (stereo not given),-3,nt,nt,102
Cc1nc(Nc2ccccc2)nc2c1C(=O)CC(C)C2 (stereo not given),-29,nt,nt,103
CC(C)CCNC(=O)C1(C)Cn2c(nc3ccccc32)C(=O)N1CCc1ccccc1 (stereo not given),-30,nt,nt,99
Cc1ccc(-n2nc(-c3ccccc3)c3c2NC(=O)CC3c2ccsc2)cc1 (stereo not given),-12,nt,nt,103
CCC1CN(C(=O)NCc2ccc(F)cc2)c2cc(C)ccc2O1 (stereo not given),2,110,103,104
COc1cccc(CNC(=O)C(Cc2ccccc2)NS(=O)(=O)c2ccc3c(c2)CCN3C(C)=O)c1 (stereo not given),-6,108,87,107
O=C(CN1CSCC1=O)Nc1nc(SCc2ccccc2)ns1,-16,110,86,nt
NC(=S)Cc1nc2ccccc2[nH]1,-28,37,1,nt
C/C(N)=C(/C#N)C(=O)CSc1nnc(C(F)(F)F)n1N,-15,79,93,nt
COC(=O)c1cc(S(=O)(=O)Nc2c(Cl)cc(OC)cc2OC)c[nH]1,-4,nt,nt,102
CN1C(=O)c2ccccc2Sc2ccc(NC(=O)N3CCN(c4cccc(Cl)c4)CC3)cc21,2,134,100,105
O=C(O)c1cccc(NS(=O)(=O)c2cc3c4c(cccc4c2)C(=O)NC3=O)c1,-152,86,65,91
Cc1ccc(S(=O)(=O)N(CC(=O)NC2CC2)C2CCCCC2)cc1,nt,106,102,98
COC(=O)CSc1nnc(CNC(=O)c2cccs2)n1-c1ccccc1,-2,83,82,106
CCC(C)NC(=O)Cn1c(=O)n(-c2cc(OC)cc(OC)c2)c(=O)c2ccccc21 (stereo not given),11&-20,104,99,106&102
O=C(Cn1ncc2c3ccccc3n(Cc3ccccc3F)c2c1=O)NCCc1ccc(Cl)cc1,-20,109,91,102
O=S(=O)(NCCn1c(C(F)(F)F)nc2cccnc21)c1cccc(Cl)c1,-7,nt,nt,108
N/C(CN1CCSCC1)=N\OCc1c(Cl)cccc1Cl,-39,98,86,101
Cc1cc(-c2ccc(C)c(S(=O)(=O)NC3CCN(Cc4ccccc4)CC3)c2)on1,6,nt,nt,105
COc1ccc(-c2cc(C(F)(F)F)n3nc(C(=O)NCC4CCCO4)cc3n2)cc1OC (stereo not given),-67,nt,nt,105
NC(=O)C1CCN(S(=O)(=O)c2ccc(N3CCCCS3(=O)=O)cc2)CC1,-15,109,101,99&106
Cc1cc(=O)n2[nH]c(N3C(=O)c4ccccc4C3=O)nc2n1,nt,94,93,99
Cc1c(C2CCN(S(=O)(=O)c3cn(C)cn3)CC2)c2ccccc2n1Cc1cccc(F)c1,-31,nt,nt,104
Cc1nc2nc(-c3ccc(Cl)cc3)nn2c(C)c1CC(=O)N1CCCC1,-24,nt,nt,101
CC(C)Cn1c(=O)c(=O)[nH]c2cc(-c3noc(-c4ccc5cc[nH]c5c4)n3)ccc21,-36,nt,nt,104
O=C1Nc2ccccc2/C1=N/N1C(=O)CNC1=O,-87,85,81,nt
CCOC(=O)C1CCCN(S(=O)(=O)c2ccc3[nH]c(=O)ccc3c2)C1 (stereo not given),nt,96,81,102
COc1ccc(Cl)cc1NC(=O)CSc1nc2ccccc2o1,-12,nt,nt,104
FC(F)(F)c1cccc(-c2ccc(-c3nn4c(-c5ccco5)nnc4s3)o2)c1,nt,90,86,97
COc1ccc(CNC(=O)CCNS(=O)(=O)c2ccc3c(c2)CCCC(=O)N3)cc1,nt,112,98,111
Cc1nc(-c2cccc(N3CC(C(=O)Nc4cccc(Cl)c4)CC3=O)c2)no1 (stereo not given),-22,nt,nt,103
O=C(CSc1nccc(=O)[nH]1)c1ccc(Br)cc1,-20,88,88,102
COC1=C(C2(O)CCCc3c2no[n+]3[O-])CCc2c1no[n+]2[O-] (stereo not given),-1,108,110,102
CC1=C(C(=O)Nc2ccc(Br)cn2)C(c2ccccc2C(F)(F)F)C2=C(CC(C)(C)CC2=O)N1 (stereo not given),-6,nt,nt,101
COc1ccc(-c2c(C)nn3c(C(F)(F)F)cc(-c4ccc(Br)cc4)nc23)cc1,-10,93,81,101
N#Cc1ncn(-c2ccccc2Oc2ccccc2)c1N,-7,nt,nt,102
COc1ccc(S(=O)(=O)N2CCc3cc4ccc(OC)cc4nc32)c(C)c1,-7,nt,nt,102

# One compound at a time, as listed above.
# Entry for COc1ccc(CNC(=O)CCNS(=O)(=O)c2ccc3c(c2)CCCC(=O)N3)cc1 = HCMV NEC inh = nt; Sa growth 42C = 112; Sa growth 42C second temp = 98; GIV-Gai inh = 111
# Entry for Cc1nc(-c2cccc(N3CC(C(=O)Nc4cccc(Cl)c4)CC3=O)c2)no1 (stereo not given) = HCMV NEC inh = -22; Sa growth 42C = nt; Sa growth 42C second temp = nt; GIV-Gai inh = 103
# Entry for COc1ccc(-c2c(C)nn3c(C(F)(F)F)cc(-c4ccc(Br)cc4)nc23)cc1 = HCMV NEC inh = -10; Sa growth 42C = 93; Sa growth 42C second temp = 81; GIV-Gai inh = 101
